VDR inh = Inhibitors of the vitamin D receptor (VDR): qHTS; Vitamin D3 receptor (Homo sapiens), P11473; VDR-SRC2-3 peptide fluorescence polarization, 2 h; Potency, µM, for the others: max response, negative = inhibition, actives largely listed as inhibitors; 400,000 tested, 0.93% active; AID 504847, 2011; active = well fitted inhibition curve with a large enough effect; inconclusive = small, poorly fitted or top-dose-only effect, or another doubt; inactive = no such curve, though single readings can be large or run the other way; also: series mostly up to about 120 µM
Target sequence (P11473 whole entry, looked up): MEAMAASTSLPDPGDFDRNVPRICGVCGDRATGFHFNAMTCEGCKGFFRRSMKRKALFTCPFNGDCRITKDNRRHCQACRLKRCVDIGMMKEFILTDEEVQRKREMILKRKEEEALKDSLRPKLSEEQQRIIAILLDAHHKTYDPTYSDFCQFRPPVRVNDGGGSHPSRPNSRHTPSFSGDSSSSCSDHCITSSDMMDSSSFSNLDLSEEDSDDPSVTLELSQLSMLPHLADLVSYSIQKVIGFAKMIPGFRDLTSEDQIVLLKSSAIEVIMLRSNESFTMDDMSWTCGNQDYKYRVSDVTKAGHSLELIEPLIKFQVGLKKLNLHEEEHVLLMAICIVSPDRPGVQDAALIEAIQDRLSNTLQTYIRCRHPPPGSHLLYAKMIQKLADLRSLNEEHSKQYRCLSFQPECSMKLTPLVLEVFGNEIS
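Reagent solutions, kept cold and dark, are dispensed first; compounds are then pinned in at 23 nl, plates briefly spun, and incubated 2 h at ambient temperature. Inhibition of VDR–SRC2-3 peptide binding is read by fluorescence polarization.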
* marks the source's active call; other numbers are inactive results; ? = inconclusive; & = joins results of further samples. % is scaled to controls: 0 for no effect and ±100 for the full control effect; potency is read from the fitted curve at half-maximal effect. The list is partial, so the mix of outcomes need not match the whole.

VDR inh	mol
-7%&16%&-17%&-13%	CC(N)C12CC3CC(CC(C3)C1)C2 (configuration not stated)
-25%	COc1ccc(OC)c(S(=O)(=O)Nc2cccc(-c3ccc(N4CCCCC4)nn3)c2)c1
0%	CCC(CC)c1nnc(NC(=O)C2CC(=O)N(CCc3ccc(OC)c(OC)c3)C2)s1 (configuration not stated)
-1%	CCc1ccc(C2=NNC(=Nc3cccc(S(=O)(=O)N(C)C)c3)SC2)cc1
-15%	Cc1[nH]c2ccc3c(ncn3CCC#N)c2c1C
-6%	O=S(=O)(Nc1ccc2c(c1)nc1n2CCN(Cc2ccccc2)C1)c1ccc(Cl)cc1
-7%&-22%	Cc1cccc(C(=O)Nc2sc3c(c2C(=O)O)CCCC3)c1
-4%	Cc1ccc(C)c(CN2C(=O)c3ccccc3S(=O)(=O)c3ccc(C(=O)N4CCN(c5ccccc5)CC4)cc32)c1
-15%	O=C(/C=C/c1ccccc1)C1=C(O)C(=O)N(CCO)C1c1cccc([N+](=O)[O-])c1 (configuration not stated)
5%	CCOc1ccc(S(=O)(=O)NCC(c2ccco2)S(=O)(=O)c2cccs2)cc1 (configuration not stated)
2%	Cc1ccc(C)c2[nH]c(=O)c(CN(CCCN(C)C)C(=O)NCc3ccccc3)cc12
-8%	CCOC(=O)/C(=N\Nc1cccc(C(F)(F)F)c1)N(CCOC)CCOC
12%	COc1ccc(C(=O)CCC(=O)O)c(C)c1
-5%	Cn1c(N)c(N2CCCCC2)c(=O)n(CC(=O)Nc2cccc(C#N)c2)c1=O
-4%	CCOc1ccc(C(=O)NC(=S)Nc2cccnc2)cc1
6%	COC(=O)c1cc(S(=O)(=O)NCCc2sccc2C)c[nH]1
-7%&13%	Cc1oc(-c2ccccc2Cl)nc1CS(=O)(=O)CC(=O)NC(C)c1ccccc1 (configuration not stated)
-10%	Cc1ccc(Cc2c(C)nc3nc(SCC(=O)NCCCN4CCCC4)nn3c2C)cc1
1%	Cc1ccccc1NC(=O)C(C)N1C(=O)c2ccccc2C1=O (configuration not stated)
2%	COc1cc2nc(N(CCCN(C)C)C(=O)c3ccc(S(=O)(=O)N4CCc5ccccc54)cc3)sc2cc1OC
4%	CCCNC(=O)CSc1nc2ccc(OCC)cc2s1
11%	CCOc1ccc(NC(=O)c2cnc3scc(C)n3c2=O)cc1
-7%	O=C(Cn1cc(C(=O)c2ccco2)c2ccccc21)Nc1ccc(Br)cc1
-2%	OCCNC(=S)Nc1ccc2nsnc2c1
-11%	Cc1ccccc1NC(=O)CSc1ccc(-c2ccco2)nn1
10%	CCOc1ccc(C(=O)NN2C(=O)C3C4C=CC(O4)C3C2=O)cc1 (configuration not stated)
-21%	CC(=O)N/C(=C\c1ccccc1)C(=O)OC(C)C(=O)NCc1ccccc1 (configuration not stated)
-24%	CCOc1c(Br)cc(C(N)=O)cc1OC
-4%	COc1ccc(C(=O)C2CCCN(C(=O)CSC)C2)cc1OC (configuration not stated)
16%	CCn1c(CNC(=O)c2cc(OC)c(OC)c(OC)c2)cc2cc(C)ccc21
15%	CCOC(=O)C1CCN(S(=O)(=O)c2cc(-c3cc(C)no3)ccc2C)CC1
13%	O=C(c1ccc(Cl)cc1)c1ccc(OCC(O)CN2CCCCC2)cc1 (configuration not stated)
3%	CC12CCC(=O)C=C1C(F)CC1C2C(O)CC2(C)C1CCC2(O)C(=O)CO (configuration not stated)
-17%&6%	Cc1ccc(CNC(=O)CCS(=O)(=O)c2ccc3c(c2)CC(C)N3C(=O)C2CC2)cc1 (configuration not stated)
6%	Cc1ccc(C2CC(=O)C=C(O)C2)cc1 (configuration not stated)
-12%	O=C(NCCCN1CCOCC1)C(=O)NCc1ccc(Cl)cc1
10%	O=Cc1c(Cl)[nH]c(=O)n1-c1ccccc1
7%	O=C(C1CCN(S(=O)(=O)c2cnc[nH]2)CC1)N1CCN(c2ccc([N+](=O)[O-])cc2)CC1
-20%	CCOc1ccc(-c2cc(C(=O)NCCCn3ccnc3)c3ccccc3n2)cc1
-6%	CCc1cccc(C)c1NC(=S)N(Cc1cccnc1)Cc1ccco1
15%	Cc1cccc(C(=O)Nc2cc(-c3ccccc3F)nn2-c2ccccc2)c1
3%	COc1ccc(Oc2cc(C(F)(F)F)cnc2C(N)=O)cc1
5%	Cc1sc2ncnc(N3CCC(C(=O)Nc4nc5ccc(Cl)cc5s4)CC3)c2c1C
-17%	CC1(O)C(=O)c2ccccc2N(c2ccccc2)C1=O (configuration not stated)
-6%	COC(=O)C1=C(O)CSC1=Nc1cccc(C(F)(F)F)c1
-2%	O=C(CCCn1cncn1)N1CCCC(N2CCN(c3ccccc3F)CC2)C1 (configuration not stated)
-2%	CCOc1ccc(OCCSc2nc3ccccc3o2)cc1
0%	O=C(Nc1ccccc1C(=O)O)c1ncn[nH]1
4%	CN(c1ccccc1)S(=O)(=O)c1ccc(NC(=O)c2ccco2)cc1
?	C=CCOc1c(Cl)cc(CNCCCN2CCOCC2)cc1OC
4%	O=C(CNC(=O)c1ccccc1F)NC1CCN(Cc2ccccc2)CC1
0%	COc1ccc(-c2noc(-c3ccccc3-c3ccccc3)n2)cc1
11%	CCOc1ccc(/C=N/OCC(=O)Nc2ccc3c(c2)OCO3)cc1
-2%	CC(C)N(c1ccccc1)c1ncnc(NCCC(=O)O)c1[N+](=O)[O-]
7%	Cc1ccc2c(c1)C1(OCCO1)C(=O)N2
-3%	COc1ccc(NC(=O)CSc2nnc(Cc3ccccc3)o2)c(OC)c1
8%	CC(C)[C@@H]1NC(=O)[C@H](Cc2ccccc2)NC(=O)[C@@H](CC(=O)O)NC(=O)CNC(=O)[C@H](CCCNC(=N)N)NC1=O
-19%	Cn1c(CCc2ccc(N)cc2)nc2ccccc21
-15%	COc1cc(/C=C/C(=O)C2C(=O)C=C(C)OC2=O)cc(OC)c1O (configuration not stated)
-25%	CC1CCCN(S(=O)(=O)c2csc(C(N)=O)c2)C1 (configuration not stated)

Additional compounds.
VDR inh	mol
-4%	COC(=O)c1cc(S(=O)(=O)N2CCCCCC2)c[nH]1
-8%	O=C(COc1ccc(S(=O)(=O)N2CCOCC2)cc1Cl)NCc1ccccn1
-20%	c1ccc(-c2nnc3sc(-c4ccncc4)nn23)cc1
-16%	Cc1csc(CN(C)C(=O)CC2C(=O)NCCN2Cc2ccc(Cl)c(F)c2)n1 (configuration not stated)
-13%	CS(=O)(=O)N1CCCC(C(=O)Nc2c(F)cccc2F)C1 (configuration not stated)
-4%	Cc1ccc(Cn2c(=O)n(CCCCC(=O)NCc3ccc4c(c3)OCO4)c(=O)c3ccccc32)cc1
0%	Cc1cc(=O)[nH]c(SCC(=O)Nc2nc(-c3ccccc3)cs2)n1
-19%	CCCCNC(=S)NNC(=O)c1nn(C)cc1Cl
2%	CCn1c(C)cc(/C=C2/SC(=O)N(CC(=O)N3CCCC3)C2=O)c1C
-11%	O=C(C1CCN(S(=O)(=O)c2cccc3cccnc23)CC1)N1CCN(c2ccccc2)CC1
-3%	O=C(c1cccc(Cl)c1)N1CCCC(C(=O)N2CCCCCC2)C1 (configuration not stated)
3%	CCCCN(C(=S)NC(=O)c1cc(OC)c(OC)c(OC)c1)c1c(N)n(Cc2ccccc2)c(=O)[nH]c1=O
3%	COc1cc([N+](=O)[O-])ccc1NC(=O)NNC(=O)CCc1ccccc1
-16%	CCCCOc1ccc(OC(=O)Nc2cc(Cl)ccc2OC)cc1
-7%	Cc1ccc(C2CC(c3ccccc3)=NN2C(=O)CSc2nnc(-c3ccncc3)n2C)o1 (configuration not stated)
20%	O=C(C1CCN(C2CCN(Cc3ccsc3)CC2)CC1)N1CCOCC1
19%	COc1ccc(S(=O)(=O)N2CCC(C(=O)N3CCc4ccccc4C3)CC2)cc1
16%	O=C1/C(=C\c2ccc(Br)o2)SC(=Nc2ccccc2)N1c1ccccc1
-17%	Cc1cc(S(=O)(=O)NCC(=O)O)ccc1F
19%	Cc1cc2ccccc2c(=O)[nH]1

Random excerpt: six records from the list.
VDR inh	mol
-7%	Cc1ccc(C2CC(c3ccccc3)=NN2C(=O)CSc2nnc(-c3ccncc3)n2C)o1 (configuration not stated)
3%	CCCCN(C(=S)NC(=O)c1cc(OC)c(OC)c(OC)c1)c1c(N)n(Cc2ccccc2)c(=O)[nH]c1=O
19%	Cc1cc2ccccc2c(=O)[nH]1
20%	O=C(C1CCN(C2CCN(Cc3ccsc3)CC2)CC1)N1CCOCC1
-4%	Cc1ccc(Cn2c(=O)n(CCCCC(=O)NCc3ccc4c(c3)OCO4)c(=O)c3ccccc32)cc1
-3%	O=C(c1cccc(Cl)c1)N1CCCC(C(=O)N2CCCCCC2)C1 (configuration not stated)

Next part
VDR inh	mol
-17%	O=C(O)C1C2CCCCC2=C2CCCCC2C1C(=O)c1ccccc1 (configuration not stated)
-3%	C=CCn1c(SCC(=O)Nc2ccc(NC(C)=O)cc2)nc2sc(C)c(C)c2c1=O
-18%	CN1CC(=O)N(CC(=O)N2N=C(c3ccc(Cl)cc3)CC2c2ccco2)C1=O (configuration not stated)
-18%	NC(=O)c1ccsc1NC(=O)COC(=O)CNC(=O)c1ccc(F)cc1
19%	O=C1C2ON(c3ccc(Br)cc3)C(c3cccnc3)C2C(=O)N1C1CCCCC1 (configuration not stated)
-12%	Cn1c(COc2ccccc2)nnc1SCC(=O)Nc1ccc(S(N)(=O)=O)cc1
10%	Cc1noc2ncnc(N3CCCC(C(=O)NCCC(C)C)C3)c12 (configuration not stated)
13%	Cc1ccc(N2CCN(C(=O)N3CCOCC3)CC2)c(C)c1
-2%	COc1ccccc1NS(=O)(=O)c1ccc(N/N=C(\C)C(C)C)c([N+](=O)[O-])c1
1%	CC(NC(=O)C12CC3CC(CC(C3)C1)C2)C(=O)NCCN(C)C (configuration not stated)
18%	CCCCOc1ccc(C(C)NC(=O)C2CCCN(S(=O)(=O)CC)C2)cc1 (configuration not stated)
-6%	Cc1ccc(NC(=S)Nc2ccc(F)cc2)cc1
-4%	CCCCNc1ncnc2c1nnn2C
-7%	CCCCCn1c(NCc2ccccc2OC)nc2ccccc21
-7%	COC(=O)c1ccc2nccnc2c1
4%	COc1ccccc1C(=O)NC(CCSC)C(=O)NNC(=O)c1ccncc1 (configuration not stated)
?	CSc1nc(N)c(C(=O)Nc2ccc([N+](=O)[O-])cc2)s1
-10%	O=C(COC(=O)/C=C/c1ccc(S(=O)(=O)N2CCOCC2)cc1)NCc1ccc(F)cc1
-9%	Cc1ccc(CN2CCN(C(=O)CC(C)C)CC2)cc1
1%	O=C(NC1CCCC1)c1ccc2c(=O)n(Cc3ccccc3)c(SCc3cccc(F)c3)nc2c1

Look-ups from above.
Under VDR inh, CN1CC(=O)N(CC(=O)N2N=C(c3ccc(Cl)cc3)CC2c2ccco2)C1=O (configuration not stated) has -18%
Under VDR inh, Cn1c(COc2ccccc2)nnc1SCC(=O)Nc1ccc(S(N)(=O)=O)cc1 has -12%

Back to the main list; the 3 compounds before the break are reprinted first.
VDR inh	mol
-10%	O=C(COC(=O)/C=C/c1ccc(S(=O)(=O)N2CCOCC2)cc1)NCc1ccc(F)cc1
-9%	Cc1ccc(CN2CCN(C(=O)CC(C)C)CC2)cc1
1%	O=C(NC1CCCC1)c1ccc2c(=O)n(Cc3ccccc3)c(SCc3cccc(F)c3)nc2c1
9%	C(=N\Nc1nc(N2CCCC2)nc(N2CCCC2)n1)/c1ccccc1OCc1ccccc1
-16%	CCOC(=O)C1=C2SCCN2C(=O)C(C#N)C1(C)C (configuration not stated)
-2%	COc1ccc(N2CCN(C(c3ccc4ncccc4c3)c3nnnn3C(C)(C)C)CC2)cc1 (configuration not stated)
-26%	O=C(CSc1c2c(nc3ccc(Cl)cc13)CCCC2)NCCCN1CCOCC1
6%	CC(=O)Nc1ccc(N/C=C/C(=O)c2ccc(C)cc2)cc1
6%	Cc1ccc(-c2nc(CS(=O)CC(=O)NC3CCCC3)c(C)o2)cc1 (configuration not stated)
-8%	Cc1ccc(NC(=O)/C(C#N)=C/c2ccsc2)c(C)c1
10%	N#Cc1ccc(NC(=O)COc2ccc(-n3cnnn3)cc2)cc1
-10%	CCOC(=O)c1csc(NC(=O)Nc2cccc(Cl)c2)n1
-15%	CC(CN1CCCCC1)C(=O)NN (configuration not stated)
12%	CCOCC(=O)Nc1ccc(C)c(Cl)c1
-8%&5%	Cc1ccccc1NC(=O)CC1C(=O)NCCN1C(=O)c1cccc(Cl)c1 (configuration not stated)
9%	COc1cc(C2CC(=O)Nc3c2c(=O)[nH]c2nc4ccccc4n32)ccc1O (configuration not stated)
14%	Fc1ccccc1CNCCCSc1nnnn1-c1ccccc1
-22%	c1ccc2c(c1)Nc1cc3ccccc3cc1O2
5%	COc1ccc(/C=C/C(=O)c2ccc(O)cc2)cc1
-30%	Cc1ccc(NC2=C(CC(=O)O)C(c3ccccc3)N(c3ccc(C)cc3)C2=O)cc1 (configuration not stated)
-6%	COCC(=O)N1CCC(Oc2ccc(C(=O)NCCCC3CCCC3)cc2)CC1
-1%	CCOc1ccccc1CNS(=O)(=O)c1cnc[nH]1
-12%	CCOc1ccc(N=Cc2c(O)c3ccccc3oc2=O)cc1
-20%	CCC1(C)COC(c2ccc(OC)c(OC)c2)OC1 (configuration not stated)
-4%	CCn1c(=O)cc(OCC(=O)NCCC(C)C)c2ccccc21
-20%&3%&2%	Cc1cc(=O)n(-c2ccccc2)n1C
1%	Cc1cc(C)nc(N(C#N)CC(=O)N(c2ccccc2)C(C)C)n1
-2%	CC1CCCN(CCOCCOc2ccc(Cl)cc2Br)C1 (configuration not stated)

Reformatted field by field: two of the compounds above
CCn1c(=O)cc(OCC(=O)NCCC(C)C)c2ccccc21
  VDR inh: -4%
Cc1cc(=O)n(-c2ccccc2)n1C
  VDR inh: -20%&3%&2%

Assay outcomes from PubChem.
